AmpC nodet inh: Promiscuous and Specific Inhibitors of AmpC Beta-Lactamase (assay without detergent). AmpC nitrocefin hydrolysis, absorbance 480 nm, no detergent; potencies from a single point are estimates. Potency, µM (series often up to 28.7 µM), for the others: at the top dose activity change, negative = inhibition. 1.8% of 71,000 active. AID 585, 2007; active = falling curve, for most hits resting on a single point; inconclusive = weak or doubtful change; inactive = flat or rising curve; further: % of control where 0% means no effect; about half of the hits show no inhibition at the top dose; a quarter of the inactives give rising signals
Target sequence (P00811 whole entry, looked up): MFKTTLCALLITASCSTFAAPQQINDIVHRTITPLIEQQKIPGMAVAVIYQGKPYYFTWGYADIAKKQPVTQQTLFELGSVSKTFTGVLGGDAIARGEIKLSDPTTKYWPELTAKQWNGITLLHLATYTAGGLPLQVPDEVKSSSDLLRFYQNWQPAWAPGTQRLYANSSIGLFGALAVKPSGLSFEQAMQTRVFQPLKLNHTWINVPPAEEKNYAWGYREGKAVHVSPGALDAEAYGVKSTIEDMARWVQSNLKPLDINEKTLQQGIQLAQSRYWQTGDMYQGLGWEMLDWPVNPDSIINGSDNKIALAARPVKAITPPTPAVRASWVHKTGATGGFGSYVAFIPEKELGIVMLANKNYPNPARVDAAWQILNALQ
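AmpC, 20 mM phosphate pH 7.0; 15 min cpd preinc, RT; start with nitrocefin (800 uM stock); A480 kinetic read, 20 s intervals, 4 min. No-enzyme wells = negative control.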
* marks the source's active call; other numbers are inactive results; [ ] = dose if it differs, or a comment. Potency means the concentration at half of the fitted maximal effect.

smiles | AmpC nodet inh
O=C(NCCCn1ccnc1)c1ccc(Cl)c(S(=O)(=O)N2CCOCC2)c1 | 1.8%
COc1ccc(OC)c(S(=O)(=O)N2CCC(C(=O)Nc3cccc(C(F)(F)F)c3)CC2)c1 | 16.3%
CCSc1nnc(-c2ccccc2N)c(=O)[nH]1 | -11.8%
O=C(O)CC1SC(=Nc2ccccc2)N(c2ccccc2)C1=O (stereo not drawn) | 0.4%
O=C(c1cccc(S(=O)(=O)N2CCCC2)c1)N1CCN(c2ccccc2)CC1 | 2.8%
COc1ccccc1CNC(=O)C1CCCN(S(=O)(=O)c2cccc3cccnc23)C1 (stereo not drawn) | 28.4%
CCOC(=O)Nc1ccc2c(c1)N(C(=O)OCCN(C)C)c1ccccc1CC2 | 3.98µM*[single pt active]
CCOC(=O)C1CCCN(C(=O)C2c3ccccc3Oc3ccccc32)C1 (stereo not drawn) | 54.6%
Cc1ccc(S(=O)(=O)N2CCN(C(=O)CN3CCOCC3)C2c2ccccc2)cc1 (stereo not drawn) | 52.5%
Cc1nnc(SCC(=O)Nc2ccccc2)n1CCc1ccccc1 | 35.9%
COc1ccc(-c2cc(=O)oc3c(C)c(OCc4nn[nH]n4)ccc23)cc1 | -4.8%
Fc1ccc(-c2nnn(Cc3nc4ccccc4s3)n2)cc1 | -1.6%
COC(=O)c1[nH]c2ccccc2c1NS(=O)(=O)c1ccc(F)c(C)c1 | -0.2%
CNS(=O)(=O)c1cccc(C(=O)OCC(=O)Nc2ccccc2OC(F)F)c1 | -13.0%
O=C(O)c1ccccc1NCn1c(=S)sc2ccccc21 | 0.4%[5.75 µM]
O=C(Cn1c(=O)n(-c2ccccc2)c(=O)n1CC(=O)N1CCCCC1)N1CCCCC1 | 7.2%
O=C1CC(NCc2ccncc2)C(=O)N1c1ccccc1 (stereo not drawn) | 6.4%
COc1ccc(CNc2oc(-c3ccccc3)nc2C#N)cc1 | 3.98µM*[single pt active]
Cn1c(=O)c2[nH]c(CCC(=O)O)nc2n(C)c1=O | 11.0%[5.75 µM]
Cc1c(Cc2ccccc2)c(=O)oc2c(CN(C)C)c(O)c(Cl)cc12 | 102.0%
C[C@H]1[C@H](C)OC(=O)C[C@H](O)C[C@H](O)C[C@H](O)CC[C@H](O)[C@H](O)CC(=O)C[C@H](O)[C@H](C(=O)O)[C@H](O)C[C@H](O[C@@H]2O[C@@H](C)[C@H](O)[C@@H](N)[C@@H]2O)C=CC=CC=CC=CCCC=CC=C[C@@](C)(O)[C@H]1O | 83.5%[5.75 µM]
CS(=O)(=O)c1ccc2nc(NC(=O)CCC(=O)c3cccs3)sc2c1 | 2.6%
COc1cc2[nH]c(=O)n(CCC(=O)NC3CCCC3)c(=O)c2cc1OC | 3.7%
COc1ccc(-c2nnnn2C)cc1S(=O)(=O)NCc1ccccc1 | -10.0%
CC(=O)NC1(c2ccccc2)CCN(Cc2nnnn2C(C)(C)C)CC1 | 8.9%
Cc1noc(C)c1-c1nc(NCc2cccs2)c2ccccc2n1 | -22.2%
Nc1ccc(SC(F)(F)F)cc1C(=O)c1ccccc1 | -3.5%
CCOC(=O)N1CCN(S(=O)(=O)c2ccc(OCC(=O)OC)cc2)CC1 | 12.8%
Cn1c(=O)c2c(nc(CN3CCN(c4ccc(F)cc4)CC3)n2Cc2ccccc2F)n(C)c1=O | 118.9%
Cc1nn2c(-n3ccnc3)c3c(nc2c1-c1ccccc1)CCC3 | 63.2%
O=C(NCCc1ccc(Cl)cc1)c1cnc2n(c1=O)CCS2 | 22.4%
CCC(C)Sc1nc2c(c(=O)[nH]c(=O)n2C)n1Cc1ccccc1Cl (stereo not drawn) | 25.3%
COc1ccc(NC(=O)CNS(=O)(=O)c2cccc3nonc23)c(OC)c1 | -1.2%
Cc1ccc(N2CCCn3c2nc2c3c(=O)n(CC(=O)OCc3ccccc3)c(=O)n2C)cc1C | 46.7%
O=C1c2ccccc2NC(c2ccccc2)N1Cc1ccco1 (stereo not drawn) | -23.9%
CC(=O)c1cccc(OCC(=O)c2cc(C)n(-c3cc(C)on3)c2C)c1 | 51.9%
O=C(CSc1ccc2nnc(-c3ccccc3)n2n1)NCC1CCCO1 (stereo not drawn) | -3.7%
COc1ccc(C2=NO[C@@H]3C(=O)N(c4c(C)cccc4C)C(=O)[C@H]23)cc1OC | 48.1%
COc1ccc(OC)c(-c2[nH]nc3c2C(c2ccco2)C(C#N)=C(N)O3)c1 (stereo not drawn) | -6.6%
COc1ccc(S(=O)(=O)Cc2ccc(C(=O)NC(C)C)o2)cc1 | 8.9%
N#CC(=C1CCCC1)c1nc(-c2ccccc2O)cs1 | 6.31µM*
Cc1[nH]c(=O)[nH]c(=O)c1S(=O)(=O)N1CCOCC1 | -7.3%
CC1CCCC(NC(=O)CSc2nccn2C)C1C (stereo not drawn) | 3.4%
CCOC(=O)CSc1nnc(CNC(=O)c2cccs2)n1CCc1ccccc1 | 74.0%
Cc1cc(Cl)cc(Br)c1OCCCCn1cncn1 | 49.8%
COc1cc(S(=O)(=O)N2CCOCC2)ccc1NC(=O)c1cc2c(s1)CCC2 | 140.5%
CCCCC(=O)N(c1ccc(OC)cc1)C1C=CS(=O)(=O)C1 (stereo not drawn) | 7.7%
Cc1cc(Cl)c2c(c1)[C@]1(C(=O)N2)[C@@H]2C(=O)N(Cc3ccccc3)C(=O)[C@@H]2[C@@H]2CCCN21 | 44.1%
CCOC(=O)Cn1c(C)c(Br)c(=O)c2cccc(C)c21 | 2.5%
Cc1cccc(NC(=O)CCN2C(=O)C3C4C=CC(C4)C3C2=O)n1 (stereo not drawn) | 6.6%
CCCOC(=O)c1ccc(OCC(O)Cn2c(C)nc3ccccc32)cc1 (stereo not drawn) | 73.4%
COC(=O)Nc1ccc(C)c(NC(=O)OC)c1 | -3.2%
CC(=O)Nc1nc2ncc(C=O)nc2c(=O)[nH]1 | -0.7%[5.75 µM]
O=C(NC12CC3CC(CC(C3)C1)C2)N1CCN(c2ccccn2)CC1 | 21.6%
CC1CN(c2nc3ccccc3nc2C(C#N)C(=O)NCc2ccc3c(c2)OCO3)CC(C)O1 (stereo not drawn) | 82.6%
CCC(C(=O)NC1CCCC1)N(C(=O)Cn1nnc(-c2ccc(C)o2)n1)C(C)(C)C (stereo not drawn) | 55.8%
O=C(C1CC(=O)N(C2CCCCC2)C1)N1CCC2(CC1)OCCO2 (stereo not drawn) | -3.6%
O=C(NCc1ccco1)c1ccc(CS(=O)(=O)c2cccc(C(F)(F)F)c2)o1 | 26.0%
CCCCP(=O)(O)c1ccccc1 | 3.0%
CCOc1ccccc1N(CC(=O)NC1CCCC1)C(=O)CCC(=O)Nc1cc(C)on1 | 88.4%

No new results follow: an excerpt of the list.
smiles | AmpC nodet inh
O=C(NCCc1ccc(Cl)cc1)c1cnc2n(c1=O)CCS2 | 22.4%
CCC(C)Sc1nc2c(c(=O)[nH]c(=O)n2C)n1Cc1ccccc1Cl (stereo not drawn) | 25.3%
COc1ccc(NC(=O)CNS(=O)(=O)c2cccc3nonc23)c(OC)c1 | -1.2%
Cc1ccc(N2CCCn3c2nc2c3c(=O)n(CC(=O)OCc3ccccc3)c(=O)n2C)cc1C | 46.7%
O=C1c2ccccc2NC(c2ccccc2)N1Cc1ccco1 (stereo not drawn) | -23.9%
CC(=O)c1cccc(OCC(=O)c2cc(C)n(-c3cc(C)on3)c2C)c1 | 51.9%
O=C(CSc1ccc2nnc(-c3ccccc3)n2n1)NCC1CCCO1 (stereo not drawn) | -3.7%

Further records follow.
structure	AmpC nodet inh
COCCn1nnnc1C(c1ccc(C)cc1)N1CCN(Cc2ccc3c(c2)OCO3)CC1 (stereo not drawn)	68.1%
O=C(Nc1nc(SCc2ccc(F)cc2)ns1)c1ccco1	-23.2%
COCC(=O)N1CCC2(CCCN(C(c3ccccc3)c3ccccc3)C2)CC1	-1.1%
CC(C)NC(=O)N1CC2(CCN(C(=O)c3cc(C(F)(F)F)cc(C(F)(F)F)c3)CC2)C1	136.6%
CSc1nc2cc(Cl)ccc2s1	-8.3%
COc1cc(NC(=O)CN2CCN(c3ccccc3F)CC2)cc(OC)c1	40.8%
O=c1c2c3c(sc2n(CCN2CCOCC2)c(=O)n1Cc1ccco1)CCCCC3	126.1%
CCOC(=O)c1ccc(NC(=O)COC)cc1	5.3%
CCOC(=O)N1CCN(CCC(=O)Nc2cccc(Br)c2)CC1	39.0%
CCN1CCCC1CNC(=O)C(NC(=O)C1CCC(C)CC1)C(C)C (stereo not drawn)	-8.6%
Cc1ccc(C(C)C)c(OCc2nnc3n2CCCCC3)c1	120.3%
CCc1cc2ccccc2nc1SCC(=O)Nc1cc(C)on1	-15.4%
O=C1CCCc2nc(N3CCN(c4ccccc4)CC3)ncc21	9.3%
C=CCN(CC=C)C(=O)C1CCC(C(=O)N(CC=C)CC=C)CC1 (stereo not drawn)	22.1%
CN(c1nc2ccccc2n2c(-c3ccco3)nnc12)S(=O)(=O)c1ccccc1	-5.1%
CCN1C2=NCCCN2c2cc(C)c(C)cc21	-1.0%
O=C(CSc1nn(-c2ccc(F)cc2)c(=S)s1)N1CCN(C(=O)c2ccco2)CC1	73.4%
Cc1ccc(NC(=O)CSc2n[nH]c(-c3ccncc3)n2)cc1	-9.8%
CCCCSc1nnc([C@@H](NC(=O)OC(C)(C)C)C(C)C)o1	29.5%
COCCCNC(=O)CCn1c(=O)c2ccccc2n(CC(=O)Nc2c(C)cccc2C)c1=O	14.7%
CN(C(=O)C1CCOC1)c1nnc(C2CCOC2)s1 (stereo not drawn)	6.9%
CN1CCN(C(=O)Cc2nc3ccccc3[nH]2)CC1	-5.0%
CN1CCN(C(=O)C2CCCCC2C(=O)O)CC1 (stereo not drawn)	-6.3%
O=C1C2CC=C(Cl)CC2C(=O)N1c1ncn[nH]1 (stereo not drawn)	1.6%
COc1ccc(-n2c(=O)cnc3cnc(N4CCNCC4)nc32)cc1	7.2%
Cc1cccc(C)c1NC(=O)C(c1ccccc1)N1CCC2(CC1)OCCO2 (stereo not drawn)	17.7%
CC(=O)N1c2c(cc(Br)cc2S(=O)(=O)N2CCN(c3ccccn3)CC2)CC1C (stereo not drawn)	120.8%
CCc1nnc(NC(=O)Cc2ccc(OCc3c(C)noc3C)cc2)s1	7.3%
CCS(=O)(=O)N1CCN(C(=O)c2cc(OC)cc(OC)c2)CC1	2.3%
CN(C)[C@@H]1C(=O)C(C(N)=O)=C(O)[C@]2(O)C(=O)C3=C(O)c4c(O)cccc4[C@@](C)(O)[C@H]3[C@H](O)[C@@H]12	-18.9%[12.8 µM]

Fetched by structure from the list above, two records:
structure	AmpC nodet inh
CCN1C2=NCCCN2c2cc(C)c(C)cc21	-1.0%
Cc1ccc(C(C)C)c(OCc2nnc3n2CCCCC3)c1	120.3%

Continuation.
structure	AmpC nodet inh
O=C(O)c1cc(S(=O)(=O)NCC2CCCO2)ccc1Cl (stereo not drawn)	-10.5%
Cc1c(Cl)cccc1NC(=O)CSc1nnc(C)n1-c1ccccc1	36.1%
COCCCNc1nc2c([nH]1)c(=O)[nH]c(=O)n2C	2.4%
[Li+]	-11.4%
CN1C(=O)NC(c2ccccc2)C2=C1CN(c1cccc(C(F)(F)F)c1)C2=O (stereo not drawn)	47.2%
CC(=O)c1sc(NC(=O)C2COc3ccccc3O2)nc1C (stereo not drawn)	-0.4%
CCOC(=O)c1ccc(N2C(=O)CC(NC3CCN(C(=O)c4ccc(F)cc4)CC3)C2=O)cc1 (stereo not drawn)	87.8%
CCOc1cccc2c1OC1(C)CC2NC(=O)N1c1ccc(OC)cc1 (stereo not drawn)	13.2%
Cc1oc(-c2ccccc2F)nc1CN1CCC(C(=O)NCCC2=CCCCC2)CC1	98.2%
Cc1nc(NCC2CCCO2)[nH]c(=O)c1CCC(C)C (stereo not drawn)	-6.4%
O=C(CSCc1cnn(-c2ccccc2)c1-n1cccc1)NCc1ccc2c(c1)OCO2	4.2%
COc1ccc(OC)c(CC(NC(C)=O)C(=O)NC2CCN(c3nc(C)cc(C)c3C#N)CC2)c1 (stereo not drawn)	83.2%
Cc1cc(C)cc(NC(=O)CCn2ccnc2C)c1	-3.9%
COc1ccc(C2=NOC(C(=O)NCc3ccco3)C2)cc1OC (stereo not drawn)	3.2%
CN(C)S(=O)(=O)c1cccc(COC(=O)C2=COCCO2)c1	-2.8%
CC(C)CNC(=O)c1noc2c1CCCC2	3.98µM*[single pt active]
CCOC(=O)c1sc(=S)n(-c2cccc(OC)c2)c1N	4.7%
O=C(CNC(=O)Cn1ccc2ccccc2c1=O)NCCCN1CCN(c2cccc(Cl)c2)CC1	155.2%
O=C(c1ccco1)N1CCC2(CC1)CCN(c1ncccn1)CC2	1.5%
Cc1cc(N2CCC(C)CC2)n2ncc(-c3ccccc3)c2n1	-4.2%
O=C(Cc1ccccc1)Oc1ccccc1N1C(=O)CCC1=O	-4.2%
COC(=O)c1c(C)[nH]c(C(=O)C(C)Sc2nnc(-c3cc(OC)c(OC)c(OC)c3)o2)c1C (stereo not drawn)	126.2%
Cc1n[nH]c(=O)nc1NCC1CCCO1 (stereo not drawn)	-5.4%
CN1C(=O)N(C)C2C1N(CN1CCCCC1)C(=O)N2CN1CCCCC1 (stereo not drawn)	6.7%
Cc1ccc(SCCC(=O)NCC2CCCO2)cc1 (stereo not drawn)	6.5%
CCc1c(C)n([O-])c2c([n+]1=O)CCCCC2	-1.1%
Cc1cscn1	1.1%
Nc1ccccc1C#CCCCCO	28.6%
O=C(CSc1nnc(Cn2c(=O)sc3ccccc32)n1-c1ccccc1)NCC1CCCO1 (stereo not drawn)	66.3%
O=C1OCCC1Sc1nc2cc(Cl)ccc2s1 (stereo not drawn)	-12.4%
CC(C)(C)n1nc2c(c1NC(=O)c1cccs1)CS(=O)C2 (stereo not drawn)	3.0%
Nc1nc(-c2cccnc2)nn1C(=O)COc1ccccc1	5.0%
Cc1noc(NS(=O)(=O)c2ccc(N/C=C/C(=O)c3ccc4c(c3)OCO4)cc2)c1C	-8.7%

Screens: PubChem, National Center for Advancing Translational Sciences (NCATS)

This is a subset; rates above refer to the full screens.
